Screening results as filed in PubChem.
ClpP mod: qHTS Assay for Activators of ClpP; purified B. subtilis ClpP, FRET peptide cleavage, 20 min; Potency, µM (series often up to 57.5 µM), inactives show at the top dose activity change, negative = active; hit rate 1.9% among 340,000; AID 651965, 2013; active = well fitted falling curve with a large enough effect; inconclusive = small, poorly fitted or top-dose-only effect; inactive = no such curve, though single readings can be large or run the other way; also: potency is read from the fitted curve at half-maximal effect; the source files actives as falling curves though it sought activators and does not explain the sign; nearly all actives have a fitted effect of over 65% in size; many hits overshoot -100%
Target sequence (P80244 whole entry, looked up): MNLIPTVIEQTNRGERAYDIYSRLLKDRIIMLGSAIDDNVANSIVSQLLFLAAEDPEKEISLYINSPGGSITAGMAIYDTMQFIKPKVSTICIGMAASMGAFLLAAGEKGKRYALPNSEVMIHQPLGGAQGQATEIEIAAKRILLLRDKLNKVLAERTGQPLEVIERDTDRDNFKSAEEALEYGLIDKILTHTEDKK
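ClpP 10 microg/mL final, pH 8 Tris/KCl buffer with BSA, glycerol, Tween-20; compound pinned in; FRET-FV substrate; RT 20 min; Ex320/Em430; ΔFRET vs ADEP 5.8 microM, DMSO, no enzyme.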
gsp ag: activates gsp, the McCune-Albright syndrome mutation | gsp mutant cells, cAMP HTRF, 30 min; control for the full effect not named in the record | Potency, µM (highest dose often 76.9 µM), for the others: top-dose activation (cAMP increase), most hits filed as activators | hit rate 0.13% among 340,000 | AID 624287; active = well fitted activation curve with a large enough effect; inconclusive = small, poorly fitted or top-dose-only effect, or another doubt; inactive = no such curve, though single readings can be large or run the other way; cell line not stated here;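 also: phosphodiesterase inhibitor Ro 20-1724 added with compounds to block cAMP breakdown; potency is read from the fitted curve at half-maximal effect; nearly all actives have a fitted effect of over 60% in size; about a fifth of the inactives were tested at one dose only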
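Cells stably selected in G418 were plated at 2000/well, grown 16-24 hr, then given compounds in DMSO with the PDE inhibitor […] (300 uM solution added) for 30 min at 37C; cAMP was read by HTRF.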
D2 PAM: positive allosteric modulators of human D2 dopamine receptor | P14416 | hit rate 0.23% among 360,000 | potentiation, % (no concentration beside the values) | DiscoveRx D2 beta-arrestin cells, luminescence, 90 min; 100% = 57 uM dopamine signal | AID 624464; active = potentiation of 50% or more; inconclusive = 30% to 50%; inactive = 30% or less;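 also: compound concentration not given in the record; tested on top of an EC20 dose of dopamine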
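PathHunter beta-arrestin assay in DiscoveRx D2 cells. Compounds were added with an EC20 of dopamine (50 nM final) for 90 min at 37 deg C. Luminescence was read 1 h after detection reagent, with 57 uM dopamine as the EC100 control.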
Menin MLL FP FL: displaces fluorescein MLL peptide from human menin | Fluorescence polarization, fluorescein-MLL peptide displacement from menin | FP activity change, % at 61.4 µM | 290,000 tested, under 10 active | AID 1766; inconclusive = falling polarisation curve, or a change in total fluorescence; inactive = total fluorescence flat and polarisation flat or rising; no compound was filed as active; the % refers to the polarisation; negative = inhibition;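 also: % of control where 0% means no effect; inhibitors lower the polarisation; unlabelled MLL peptide was the positive control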
gsp antag: antagonizes gsp, the McCune-Albright syndrome mutation; Potency, µM (titrated, usually from 76.9 µM), without a hit: at the highest dose activity change, negative = inhibition, hits mostly inhibitors; gsp-mutant cells, cAMP HTRF, 30 min; control for the full effect not named in the record; hit rate 0.4% among 340,000; AID 624288; active = falling curve of any shape with a large fitted effect; inconclusive = falling curve, mostly with a smaller effect; inactive = flat or rising curve; cell line not stated here;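 also: intracellular cAMP measured with PDE inhibitor Ro 20-1724 present during compound exposure; potency is read from the fitted curve at half-maximal effect; % is scaled to controls: 0 for no effect and ±100 for the full control effect; nearly all actives have a fitted effect of over 65% in size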
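G418-selected cells were plated in DMEM/10% FBS for 16-24 h at 37C, then treated with compounds plus the PDE inhibitor […] (300 uM solution added) for 30 min at 37C. Intracellular cAMP was measured by HTRF after 30 min lysis at room temperature.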
Sfp PPTase inh: Sfp phosphopantetheinyl transferase inhibition | Biochemical Sfp PPTase activity, qHTS | AID 1490 | Potency, µM, for inactives: max response, negative = inhibition, most hits filed as inhibitors | hit rate 3.5% among 310,000; active = well fitted inhibition curve with a large enough effect; inconclusive = small, poorly fitted or top-dose-only effect, or another doubt; inactive = no such curve, though single readings can be large or run the other way;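 also: the enzyme is Sfp with the accession as filed and its product quenches rhodamine fluorescence; potency is read from the fitted curve at half-maximal effect; 0% = enzyme reaction without inhibitor and -100% = no enzyme wells; top concentration of the series not given in the record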
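After 15 min at room temperature with compound, 15 nM Sfp received 5 uM rhodamine-CoA plus 12.5 uM BHQ-2-ybbR (50 mM Hepes pH 7.6, 10 mM MgCl2). Rate came from the fluorescence difference over 30 min, ex 525/em 598 nm.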
TRPV1 PAM: human TRPV1 potentiation. Q8NER1. potentiation, % at 8.33 µM. TRPV1-expressing cells, Fluo-8 calcium influx, capsaicin EC20 potentiation; host cell line not named in the record; control for the full effect not named in the record. hit rate 0.02% among 320,000; active means potentiation above 80%; inconclusive means 30% to 80%; inactive means below 30%; also: 0% is about no effect
Target sequence (Q8NER1 whole entry, looked up): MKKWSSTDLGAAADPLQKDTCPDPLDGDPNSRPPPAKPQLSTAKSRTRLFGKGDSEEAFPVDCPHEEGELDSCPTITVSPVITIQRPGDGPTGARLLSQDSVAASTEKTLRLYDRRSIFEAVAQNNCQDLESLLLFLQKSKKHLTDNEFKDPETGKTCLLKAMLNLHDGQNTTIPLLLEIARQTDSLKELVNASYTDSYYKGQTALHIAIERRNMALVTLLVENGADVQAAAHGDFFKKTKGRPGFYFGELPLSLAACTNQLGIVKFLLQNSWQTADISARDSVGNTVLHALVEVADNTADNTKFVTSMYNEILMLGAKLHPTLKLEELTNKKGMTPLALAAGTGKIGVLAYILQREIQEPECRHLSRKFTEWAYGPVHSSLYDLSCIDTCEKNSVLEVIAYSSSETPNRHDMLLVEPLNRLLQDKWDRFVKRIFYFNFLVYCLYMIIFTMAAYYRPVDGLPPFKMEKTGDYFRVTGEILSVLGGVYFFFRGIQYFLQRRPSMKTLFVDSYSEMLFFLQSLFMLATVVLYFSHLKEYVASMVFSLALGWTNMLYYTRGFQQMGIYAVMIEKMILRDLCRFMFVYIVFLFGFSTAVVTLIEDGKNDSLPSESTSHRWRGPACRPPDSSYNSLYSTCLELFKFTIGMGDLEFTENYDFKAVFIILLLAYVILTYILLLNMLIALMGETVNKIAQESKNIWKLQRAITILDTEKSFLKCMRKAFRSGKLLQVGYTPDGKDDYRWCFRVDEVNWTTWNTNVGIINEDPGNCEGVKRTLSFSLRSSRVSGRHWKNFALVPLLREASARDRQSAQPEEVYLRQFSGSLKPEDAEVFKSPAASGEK
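Cells expressing TRPV1 were dye-loaded with Fluo-8 and read kinetically: 10 s baseline, 3 min after compound (agonist portion), then 2 min after EC20 capsaicin (allosteric enhancer portion). Calcium-bound dye fluorescence at 480/520 nm.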
* = called active by the depositor; ? = inconclusive; · = not tested or not shown; & = joins results of further samples; [ ] = another dose, or the depositor's remark.

Values run as follows: ClpP mod	gsp ag	D2 PAM	Menin MLL FP FL	gsp antag	Sfp PPTase inh	TRPV1 PAM
> CC(C)NC(=O)c1[nH]nc2c1CCc1ccccc1-2
    -29%	28%	-13	0.5	-5%	5%	-1
> Cc1ccccc1NC(=S)N=Nc1c(O)n(C)c2ccc(S(=O)(=O)N3CCOCC3)cc12
    -2.2%	-44%	4	1.8	-8%	-1%	6
> O=C(NCCN1CCN(C(=O)c2cccc(Br)c2)CC1)C(=O)NCc1ccccc1
    -0.9%	-3%	-8	0.3	-8%	11%	-4
> c1ccc(CSc2ncnc3c2ncn3C2CCCCO2)cc1 (stereo not given)
    ·	31%	-4	·	3%	·	·
> CN(CC(=O)NC(=O)NC1CCCCC1)CC(=O)Nc1ccc(OC(F)(F)F)cc1
    0.8%	-6%	-24	·	-24%	·	-1
> O=S(=O)(c1ccc2nc(SCc3ccc(Cl)cc3)[nH]c2c1)N1CCOCC1
    -2.2%	-4%	0	3.8	-6%	-4%	-5
> COC(=O)[C@@]1(C)[C@H]2C(=O)N(Cc3ccccc3)C(=O)[C@H]2[C@H]2CN=C(SCC(=O)c3ccccc3)N21
    1.1%	·	1	·	2%	·	·
> CCOC(=O)c1ccccc1NC(=O)CSc1nnc(C(C)C)n1CC
    -3.6%	18%	-8	0.9	-10%	-9%	-5
> COc1ccc(NC(=S)NCCc2ccc(F)cc2)c(OC)c1
    ·	-1%[15.4 µM]	-11	·	0%	6%	-5
> Cc1occc1C(=O)NNC(=O)Cc1ccccc1
    1.2%	-20%	-4	-1.4	10%	14%	·
> C#CCOCCOCCOCCNc1nc(N2CCN(C(=O)CCCCCCCCCCNC(=O)[C@H](CCCCN)n3cc(C)nn3)CC2)nc(N2CCN(C(=O)CCCCCCCCCCNC(=O)[C@@H]([C@H](C)O)n3cc(C)nn3)CC2)n1
    -1.6%	·	-1	·	2%	·	10
> Nc1nc(SCC(=O)O)[nH]c(=O)c1NC(=O)c1ccccc1F
    ·	0%[15.4 µM]	-2	-1.9	14%	11%	4
> Cc1ccc(C2(C)CC(C)(C)N(C(=O)CSc3nnc(C)s3)c3ccccc32)cc1 (stereo not given)
    0.8%	21%[15.4 µM]	-10	0.7	-23%	-3%	-8
> O=S1(=O)N=CN(Cc2cccc(F)c2)c2ccccc21
    3.0%	-29%	1	2.8	6%	9%	2
> COc1ccccc1C(=O)O/N=C(/C)c1ccc(N2C(=O)C3CCCCC3C2=O)cc1 (stereo not given)
    2.8%	-29%	25	3.5	?	-7%	-2
> CN(CC(=O)Nc1c(Cl)cccc1Cl)C(=O)c1cc(S(=O)(=O)N(C)C)ccc1N1CCCC1
    -0.2%	35%	-19	·	-6%	·	-4
> COc1cccc(NC(=S)N(CCCN2CCC(C)CC2)Cc2cccs2)c1
    -2.9%	5%[15.4 µM]	-17	1.6	3%	8%	0
> COc1cc(OC)c(OC)cc1/C=N/NC(=O)CSc1ccccc1F
    -26%	-3%	-4	1.5	-7%	3%	-8
> COC(=O)c1ccc(S(=O)(=O)N(Cc2ccccc2)Cc2ccccc2)n1C
    0.4%	-24%	3	-0.2	3%	11%	8
> O=C(CS(=O)(=O)c1ccc(Cl)cc1)Nc1nnc(-c2cccs2)o1
    -13%	?	-2	·	1%	1%	-5
> COc1ccc(S(=O)(=O)NCc2cc(=O)n(C)c(=O)n2C)cc1F
    0.4%	?	2	4.2	5%	17%	14
> Nc1nc(SCC(=O)Nc2ccc([N+](=O)[O-])cc2)[nH]c(=O)c1NC(=O)c1ccc(Br)o1
    -1.6%	11%[15.4 µM]	-11	·	5%	-5%	5
> Cn1ccnc1C1CCCCN1C(=O)c1cc(COc2ccc(F)cc2F)on1 (stereo not given)
    ·	8%[15.4 µM]	-4	0.6	2%	3%	7
> CCOC(=O)N1CCN(C(=O)C(C)NC(=O)c2ccco2)CC1 (stereo not given)
    -1.7%	-31%[15.4 µM]	-2	0.6	5%	26%	16
> O=C(CSC1=NCCN1)NC12CC3CC(CC(C3)C1)C2
    0.2%	0%	-32	1.3	16%	15%	2
> OCCC1CN(CCCc2ccccc2)CCN1CCc1ccccc1 (stereo not given)
    ·	?	-23	1.0	-13%	11%	1
> CCC(CC)C(=O)Nc1c2c(nn1-c1ccc(C)cc1)CS(=O)(=O)C2
    ·	-35%[inhibitor][15.4 µM]	-6	3.6	6%	4%	-7
> Cc1ccc(CC2C(=O)N(c3cc(Cl)ccn3)C(=O)C2C)cc1 (stereo not given)
    ·	7%[15.4 µM]	-7	0.4	-18%	-1%	-17
> C=CCNC(=S)NC1CC(C)(C)NC(C)(C)C1
    1.9%	-36%[inhibitor]	-16	3.2	18%	29%	1
> Cc1cccc(-n2c(O)c(C=Nc3ccccc3)c3ccccc3c2=O)n1
    ·	37%[15.4 µM]	-16	-0.4	·	0%	-18
> O=c1[nH]nc(Sc2ccccc2)c(=S)[nH]1
    0.8%	-28%	-14	·	·	·	·
> O=c1cccc(-c2ccc(Br)cc2)o1
    0.8%	-2%	-7	2.4	8%	6%	-2
> O=C(NCC1CCCO1)c1nc2c(nnn2Cc2ccc(F)cc2)c(=O)[nH]1 (stereo not given)
    0.2%	5%	-8	3.5	-9%	-15%	11
> CCOC(=O)c1sc2ncnc(NCC(c3cccs3)N(C)C)c2c1C (stereo not given)
    ?	-4%	-6	5.7	-12%	0%	30
> CC(=O)C1C(c2ccc(Cl)cc2)c2c(noc2C)CC1(C)O (stereo not given)
    -0.1%	5%	6	-0.7	-6%	2%	-2
> CCOC(=O)C1(C(=O)OCC)NC(=O)CC1C (stereo not given)
    ·	-7%	5	·	13%	·	·
> O=C(Nc1ccc2c(c1)OCO2)c1ccc2c(c1)S(=O)(=O)c1ccccc1C2=O
    -1.9%	·	-2	·	4%	·	·
> CC(C)(C)NC(=O)C(OC(=O)c1cccs1)c1ccccc1 (stereo not given)
    -0.4%	?	-13	0.8	1%	19%	9
> CCN1C/C(=C/c2ccc(N3CCOCC3)cc2)C(=O)/C(=C/c2ccc(N3CCOCC3)cc2)C1
    -5.7%	?	-35	?	4%	?	8
> CC1(C)C(=O)Nc2ccccc2N1C(=O)COC(=O)CCSc1ccccc1
    0.3%	4%	-14	0.8	2%	5%	13
> C/C=C/C(=O)Nc1cccc(C2=NOC3(C2)C[C@H](C(N)=O)N(C(=O)c2ccccc2C(=O)c2ccccc2)C3)c1 (stereo not given in full)
    ·	·	·	0.2	·	8%	7
> COc1ccc(OCC(=O)Nc2cc(-c3nn(C)c(=O)c4ccccc34)ccc2OC)cc1
    -24%	0%	15	3.9	?	-1%	1
> CN(C)CCCN(C(=O)c1ccco1)c1nc2cc3c(cc2s1)OCO3
    -1.4%	?	-21	0.2	9%	-1%	-6
> CSc1ncc(Cl)c(C(=O)NCc2ccc3c(c2)OCO3)n1
    -6.2%	0%	-15	-2.4	-1%[15.4 µM]	0%	-5
> CN(C)S(=O)(=O)N(CC(=O)Nc1ccc2ccccc2c1)c1ccccc1
    -5.7%	-5%	-1	-1.1	?	2%	2
> Cc1csc(SCC(=O)NC(=O)NCCC(C)C)n1
    ·	13%[15.4 µM]	11	-3.8	·	20%	13
> COc1cccc(/C(C)=N/Nc2ccc(S(=O)(=O)N3CCCCC3)cn2)c1
    -1.7%	-20%	-5	·	1%	·	4
> CCn1c(CNC(=O)c2ccco2)nnc1SCC(=O)Nc1cc(F)ccc1C
    ·	10%	0	5.5	2%	7%	12
> Cc1c(NC(=O)c2c(N)n(-c3ccccc3)c3nc4ccccc4nc23)c(=O)n(-c2ccccc2)n1C
    ·	·	·	-2.6	·	-1%	6
> Cc1nc(N2CCN(C(=O)c3ccco3)CC2)c(C#N)c2c1CCCC2
    ·	3%	-1	-1.4	1%	-11%	3
> CC(C)C[C@H](NC(=O)Nc1cccc(C(F)(F)F)c1)C(=O)O
    -1.1%	-36%[inhibitor]	-3	3.0	11%	23%	-4
> COC(=O)CCCC1=CC2=CC(=O)C(C)(OC(=O)c3cccs3)C(=O)C2=CN1CC1CC1 (stereo not given)
    -0.8%	·	16	-8.0[11.7 µM]	-5%	-12%&-13%	-3
> Cc1cccc([C@@H]2[C@@H]3C(=O)N(Cc4ccccc4)C(=O)[C@@H]3[C@]3(Cc4ccc(Cl)cc4)C(=O)N(c4ccc(Br)cc4)C(=O)N23)c1
    -12%	?	-3	0.2	0%	16%	?
> O=C(Cc1ccccc1)N/N=C/c1ccccc1OCc1ccc(Cl)cc1
    -1.8%	27%	-21	1.0	6%	5%	·
> CC1(C)CC(=O)C(C=Nc2ccc3[nH]ncc3c2)=C(O)C1
    22%	-56%[inhibitor]	-11	-2.6	7%	-14%	-6
> O=C(OC1CCCCC1=O)c1cc(Cl)ccc1[N+](=O)[O-] (stereo not given)
    ·	0%[15.4 µM]	9	-1.6	-5%	14%	2
> COc1ccc(OCCCC(=O)Nc2cccnc2)cc1
    1.3%	1%	4	1.4	-6%	-2%	-17
> CCc1ccc(-n2c(=O)c3c(C)c(C)sc3n(CC(=O)NCC3CCCO3)c2=O)cc1 (stereo not given)
    ·	?	-2	-2.0	0%	-8%	10
> O=C(/C=C/c1ccco1)N(c1ccccn1)c1ccccn1
    ·	5%[15.4 µM]	4	?	·	40µM*	4
> O=C(CCNS(=O)(=O)c1ccccc1)NNC(=O)c1cccc(Cl)c1
    -3.0%	-55%[inhibitor]	0	·	8%	·	·
> Cc1ccc(C(=O)N/C(=C\c2cccs2)C(=O)N2CCOCC2)cc1C
    -1.0%	7%	0	·	3%	9%	?
> Cc1ccc2c(c1)N(CC(=O)NCCCN1CCOCC1)C(=O)c1cccnc1O2
    -0.4%	-18%	-8	-1.3	0%	9%	0
> CC(=O)N1c2ccc3ccccc3c2C2C=CCC2C1c1ccc(Br)cc1 (stereo not given)
    ·	·	·	?	·	-25%	-4
